Screens (PubChem BioAssay)
Cruzain Triton: inhibitors of Trypanosoma cruzi cruzain with detergent; P25779; purified cruzain, Z-FR-AMC fluorescence, 0.01% Triton; Potency, µM, for inactives: max response, negative = inhibition, usual class: inhibitors; 200,000 compounds, 0.43% hits; AID 1478;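 note: plate controls were neutral wells for no effect and buffer without enzyme for full effect; nearly all actives have a fitted effect of over 40% in size; top concentration of the series not given in the record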
Target sequence (P25779 123-467 limits assumed): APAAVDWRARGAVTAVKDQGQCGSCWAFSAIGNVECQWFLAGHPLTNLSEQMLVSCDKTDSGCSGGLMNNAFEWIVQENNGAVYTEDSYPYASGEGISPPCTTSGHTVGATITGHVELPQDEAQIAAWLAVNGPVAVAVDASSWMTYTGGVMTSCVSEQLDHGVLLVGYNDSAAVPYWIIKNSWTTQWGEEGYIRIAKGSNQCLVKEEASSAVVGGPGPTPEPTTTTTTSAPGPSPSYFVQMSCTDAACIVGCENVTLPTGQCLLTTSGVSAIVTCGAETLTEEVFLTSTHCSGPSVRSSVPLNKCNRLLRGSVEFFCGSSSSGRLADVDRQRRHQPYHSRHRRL
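Read-out: AMC fluorescence (360 nm excitation, 450 nm emission), four reads over 2 min, first-to-third difference used. Conditions: cruzain 1.5 nM, Z-FR-AMC 2 uM, pH 5.5 acetate, 5 mM DTT, 0.01% Triton X-100.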
MARV entry inh: Marburg virus entry inhibition; 300,000 compounds, 1.8% hits; AID 540276; Potency, µM (top dose mostly 37.8 µM), for inactives: at the highest dose activity change, negative = inhibition, usual class: inhibitors; Marburg virus pseudotyped entry inhibition, cell reporter; control for the full effect not named in the record; about a third of the inactives were read at about 46 µM; active = well fitted inhibition curve with a large enough effect; inconclusive = small, poorly fitted or top-dose-only effect, or effect the other way; inactive = flat fitted curve, though single readings scatter; tested in HEK293 cells; about a fifth of its hits are not listed in these tables; note: % is set by controls: 0 for no effect and ±100 for the full control effect; luciferase read-out
SARS PLpro yeast: blocks SARS-CoV papain-like protease in a yeast assay; S. cerevisiae expressing SARS-CoV PLpro, growth rescue; control for the full effect not named in the record; Potency, µM (top dose mostly 32.9 µM), for inactives: at the top dose activity, positive = growth rescue; 330,000 compounds, 0.19% hits; active means well fitted rising curve with a large enough effect; inconclusive means small, poorly fitted or top-dose-only effect; inactive means no such curve, though single readings can be large or run the other way; note: 0% is about no effect; nearly all actives have a fitted effect of over 55% in size; growth read by luminescence after 48 h
NS1 function inh: influenza NS1 inhibition | Potency, µM (titrated, usually from 46.1 µM), for the others: top-dose activity, positive = more growth | 270,000 compounds, 0.4% hits | S. cerevisiae slowed by influenza A NS1, growth recovery by OD600; active means well fitted rising curve with a large enough effect; inconclusive means small, poorly fitted or top-dose-only effect; inactive means no such curve, though single readings can be large or run the other way; note: nearly all actives have a fitted effect of over 50% in size
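Recovery from NS1-induced slow growth read by OD600 in budding yeast switched to galactose assay medium (pH 6.0, -URA) at 1:100 dilution. Compound 23 nl per well; the matching strain lacking NS1 serves as control.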
LASV entry inh: Lassa virus entry inhibition; Lassa virus pseudotype entry inhibition, cell reporter; control for the full effect not named in the record; 300,000 compounds, 1.2% hits; Potency, µM (top dose mostly 37.9 µM), for inactives: at the top dose activity change, negative = inhibition, usual class: inhibitors; AID 540256; active means well fitted inhibition curve with a large enough effect; inconclusive means small, poorly fitted or top-dose-only effect, or effect the other way; inactive means flat fitted curve, though single readings scatter; tested in HEK293 cells; note: % is set by controls: 0 for no effect and ±100 for the full control effect; nearly all actives have a fitted effect of over 50% in size; luciferase read-out
Cruzain noTriton: blocks cruzain activity in detergent-free assay. Potency, µM, inactives show max response, negative = inhibition, actives largely listed as inhibitors. 200,000 compounds, 2.3% hits. P25779. AID 1476. purified cruzain, Z-FR-AMC fluorescence, no detergent;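 note: plate controls were enzyme without inhibitor for no effect and buffer without enzyme for full effect; nearly all actives have a fitted effect of over 40% in size; top concentration of the series not given in the record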
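Detergent-free condition (0.00005% Triton X-100) in acetate buffer pH 5.5 with DTT. 1.5 nM enzyme and compound were pre-mixed 15 min, then 2 uM Z-FR-AMC substrate added; reaction progress from fluorescence change between first and third reads (60 s).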
RE007 growth inh: less growth of the S. pombe RE007 Vpr strain; S. pombe RE007 Vpr strain, BacTiter-Glo ATP luminescence, 24 h; control for the full effect not named in the record; Potency, µM (highest dose often 92.2 µM), for inactives: at the top dose activity change, negative = less growth; 360,000 compounds, 0.21% hits; AID 651644; active = well fitted falling curve with a large enough effect; inconclusive = small, poorly fitted or top-dose-only effect; inactive = no such curve, though single readings can be large or run the other way;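 note: % is set by controls: 0 for no effect and ±100 for the full control effect; nearly all actives have a fitted effect of over 50% in size; the assay follows cell death caused by Vpr and the record does not say whether a fall means rescue or toxicity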
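Fission yeast strain RE007, carrying one chromosomally integrated HIV-1 vpr copy, was seeded at OD 0.01 in PMG+AL medium with 23 nL pinned compound. After 24 h at 30 °C and 99% humidity, viability was read by BacTiter-Glo luminescence.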
2A StopGo: FMDV 2A StopGo reporter, luciferase signal | human cells with a luciferase reporter of 2A StopGo recoding; control for the full effect not named in the record | Potency, µM (highest dose often 57.9 µM), inactives show at the top dose signal change, negative = less light | 410,000 compounds, 1.2% hits | AID 1159524; active = well fitted falling curve with a large enough effect; inconclusive = small, poorly fitted or top-dose-only effect; inactive = no such curve, though single readings can be large or run the other way; tested in HEK293T cells; note: % is set by controls: 0 for no effect and ±100 for the full control effect; nearly all actives have a fitted effect of over 45% in size; luciferase light after 4 h
Active calls of the source: *; ? = inconclusive; . = not tested or not shown; & = joins results of further samples; [ ] = another dose, or the depositor's remark. Unless noted, calls come from the whole dose curve; as a rule, active = well fitted curve in the direction sought with a large enough effect; inconclusive = small, poorly fitted or top-dose-only effect, or another doubt; inactive = no such curve, though single readings can be large; an effect the other way counts as inactive or inconclusive. Potency is the fitted concentration of half-maximal effect.

SMILES	Cruzain Triton	MARV entry inh	SARS PLpro yeast	NS1 function inh	LASV entry inh	Cruzain noTriton	RE007 growth inh	2A StopGo
O=C(CCn1nnc(-c2cccs2)n1)NC1CCCCC1	-0.2%	6.3%	-10.0%	1.2%	14.7%	-7.1%	18.3%	.
COc1ccc(S(=O)(=O)NCCc2sc(-c3ccccc3)nc2C)cc1OC	-4.8%	.	.	.	8.3%[46.1 µM]	17.4%	.	35.8%[activator]
CCC(CC)NC(=O)c1cc2c(C)nn(Cc3ccccc3Cl)c2s1	-7.6%	?	-2.6%	6.6%	-11.3%	8.7%	-4.8%	0.0%
COc1ccc(S(=O)(=O)NC(C)C(=O)Nc2ccc3c(c2)OCO3)cc1OC (stereo not drawn)	.	8.9%[46.1 µM]	17.1%	-2.8%	16.1%	.	79.1%	-9.1%
O=c1[nH]cnc2c1cnn2Cc1ccccc1	2.1%	18.0%&18.0%	5.9%	-2.2%	16.4%	14.4%	-2.1%	-9.9%
CCOC(=O)c1sc(NC(=O)Cc2ccc(C)cc2)nc1C	.	.	-1.6%	-1.8%	.	.	19.3%	-4.4%
Cc1ccc(OCCSc2nnc(-c3cccs3)o2)cc1	-8.6%	15.6%[46.1 µM]	.	.	-9.5%[46.1 µM]	-3.5%	.	5.4%
CCCSc1ccc2nc(-c3ccccc3)cn2c1	-10.0%	?	-10.5%	-15.5%	2.24µM*	-8.0%	?	2.24µM*
COc1ccc(NC(=O)N(Cc2ccc3c(c2)OCO3)C2CC(=O)N(c3ccc(OC)cc3)C2=O)cc1 (stereo not drawn)	0.7%	-15.3%	-5.2%	2.0%	-1.4%	-1.1%	-7.5%	6.7%
CCOC(=O)c1ccc(NS(=O)(=O)CC)cc1	4.1%	1.5%	3.8%	-6.7%	12.6%	-5.3%	9.0%	15.1%
Cc1cc(C(=O)CN2C(=O)c3ccccc3S2(=O)=O)c(C)n1-c1ccccc1	0.4%	8.91µM*	-3.3%	1.6%	1.58µM*	-21.3%	-4.2%	?
O=C(COc1ccc(C(F)(F)F)cc1[N+](=O)[O-])Nc1cccc(C(F)(F)F)c1	-1.5%	5.5%	-5.1%	-3.4%	14.8%	?	1.8%	3.9%
O=C(O)CSc1c(-c2ccccc2)[nH]c2ccccc12	1.2%	4.9%	11.0%	-7.0%	1.1%	-3.7%	7.2%	-17.0%
O=C(CNS(=O)(=O)c1cccs1)N1CCN(c2ccccc2F)CC1	-1.0%	-1.8%&29.2%[46.1 µM]	0.4%	0.3%	10.1%[46.1 µM]	-8.0%	-31.4%	50.3%&62.1%[activator]
CC1CN(C(=S)Nc2cccc(Cl)c2Cl)CC(C)O1 (stereo not drawn)	.	.	-5.1%	-4.9%	.	.	4.7%	-0.2%
O=C(CS(=O)c1cccc(Cl)c1)Nc1ccccc1Cl (stereo not drawn)	1.9%	-6.4%	7.2%	9.5%	-5.0%	-1.9%	-10.5%	-12.1%
COc1ccc(OC)c(S(=O)(=O)NCc2cccn2Cc2cccc(C)c2)c1	-5.4%	.	.	.	?	-0.7%	.	36.5%[activator]
CCn1c(=O)c(=O)n(CC)c2cc(S(=O)(=O)Nc3cc(C)ccc3C)ccc21	.	.	?	19.5%	.	.	16.9%	14.5%
Cc1ccc2nc(-c3ccc(NC(=S)NC(=O)C(C)C)cc3)sc2c1	-7.4%	12.7%	5.7%	-4.5%	0.4%	-23.1%	-10.9%	.
O=C(CCCn1cnc([N+](=O)[O-])n1)Nc1cccc2ccccc12	.	10.7%[46.1 µM]	-0.5%	.	0.4%	.	3.6%	-0.8%
COc1ccc(S(=O)(=O)NCCc2csc(-c3cccnc3)n2)cc1	-2.1%	-0.9%	-0.4%	2.1%	.	-7.0%	-2.1%	-0.3%
Cn1nc2c(c1C(=O)O)CCCC2	-0.6%	4.3%	10.8%	6.5%	19.6%	7.6%	1.4%	-5.1%
O=C(CCn1c(=O)c2sccc2n(Cc2ccc(F)cc2Cl)c1=O)NCc1ccc2c(c1)OCO2	0.0%	1.8%[46.1 µM]	.	.	9.7%[46.1 µM]	4.5%	.	10.4%
COc1cccc(N(CC(=O)N2CCC(C)CC2)S(=O)(=O)c2ccc(C)cc2)c1	-3.4%	.	.	.	-11.0%[46.1 µM]	6.1%	.	52.9%[activator]
CC(=O)c1c(C)[nH]c(C(=O)OCc2cc(-c3ccco3)on2)c1C	.	-0.3%[46.1 µM]	-6.2%	.	7.6%	.	12.3%	0.0%
CSc1ccccc1OCc1cc(C(=O)N(C)Cc2nonc2C)no1	.	-29.3%	-0.9%	-22.5%	-10.5%	.	-7.6%	34.9%[activator]
CCCCn1cc([N+](=O)[O-])nc1C	.	.	1.6%	6.4%	.	.	1.1%	-4.5%
O=C(Nc1nnc(-c2ccncc2)s1)Nc1ccccc1F	.	4.7%[46.1 µM]	-0.2%	.	27.3%[46.1 µM]	.	15.7%	-12.4%
COC(c1ccccc1)c1nnc(CCC(=O)NCCC(C)C)o1 (stereo not drawn)	.	6.5%[46.1 µM]	-0.7%	-0.1%	0.0%	.	-12.7%	-9.5%
Cc1ccc(NC2CCCN(C(=O)CN3C(=O)c4ccccc4C3=O)C2)cc1C (stereo not drawn)	.	-9.3%	-5.2%	-4.7%	12.8%	.	-11.9%	-15.4%
CC(=O)N1CCN(c2nc3c(C)ccc(Cl)c3s2)CC1	-7.1%	.	.	.	-0.2%[46.1 µM]	?	.	26.3%
COc1ccc(C2NCCCC2c2ccccc2)cc1 (stereo not drawn)	.	?	.	.	6.2%	.	13.2%	-13.0%
Oc1c(C(c2ccccc2)N2CCc3ccccc3C2)sc2ncnn12 (stereo not drawn)	-3.2%	.	-4.9%	-6.0%	.	-5.2%	-2.5%	11.7%
Cc1nnc2c3ccccc3nc(Nc3ccc(F)cc3Cl)n12	-0.6%	.	.	.	19.9%[46.1 µM]	-3.2%	.	-5.1%
Cn1c(=O)c(/C=C/c2ccccc2)nc2ccccc21	-10.2%	?	16.6%	-10.2%	-16.4%	-5.6%	.	-9.9%
Cc1ccc(-c2ocnc2C(=O)Nc2ccccc2C(=O)N2CCCC2)cc1	.	-25.4%[46.1 µM]	-1.1%	8.5%	.	.	19.0%	-17.9%
CC(NC(=O)Cc1cccc(C(F)(F)F)c1)c1ccc(F)cc1 (stereo not drawn)	.	6.7%[46.1 µM]	1.6%	.	.	.	-13.6%	-12.5%
COC(=O)c1cc(NC(=O)Cc2cccs2)cc(C(=O)OC)c1	.	.	-4.5%	5.8%	.	.	-8.1%	-9.2%
COCCCNC(=O)c1c(NC(=O)c2cccs2)sc2c1CCCC2	-2.0%	-1.8%	-8.7%	-11.8%	-3.0%	?	10.5%	2.1%
Fc1ccc(N2CCN(c3nc4ccccc4c4nc(-c5cccnc5)nn34)CC2)cc1	-0.3%	7.2%[46.1 µM]	.	.	.	-5.5%	.	-21.1%
COc1ccccc1N1CCN(CC(=O)NC(=O)NCc2ccco2)CC1	0.9%	?	-11.8%	-4.4%	3.3%	14.5%	-9.1%	-15.2%
COC(=O)NC1(C(F)(F)F)NC(=O)N(C2CCCCC2)C1=O (stereo not drawn)	0.3%	0.4%	2.2%	-1.2%	0.9%	0.7%	-0.9%	-21.9%
CCC(C)NC(=O)Nc1ccc(F)c(Cl)c1 (stereo not drawn)	.	10.7%[46.1 µM]	0.3%	2.1%	-3.2%	.	-13.3%	44.2%[activator]
CC(C)(C)c1ccc(Oc2ccc(NC(=O)CCC(=O)OCC(=O)c3ccccc3)cc2)cc1	-10.3%	1.3%[46.1 µM]	.	.	?	?	.	-13.5%
CCn1c(CC2C(=O)Nc3ccccc32)nc2ccccc2c1=O (stereo not drawn)	-1.0%	-25.2%[46.1 µM]	.	.	-6.7%[46.1 µM]	12.2%	.	?
CC(O)C(C(=O)OCc1ccc([N+](=O)[O-])cc1)N1C(=O)c2ccccc2C1=O (stereo not drawn)	.	-10.7%	5.1%	.	-9.2%	.	3.8%	-2.0%
OC(CNC1CCCC1)COc1ccc(F)cc1 (stereo not drawn)	.	.	1.1%	0.2%	.	.	-6.1%	3.9%
O=C(CSc1ccc(-c2ccccn2)nn1)NCc1ccccc1	.	6.0%[46.1 µM]	25.1%	.	4.3%	.	-13.0%	8.7%
OC1CCCN(Cc2cn(Cc3ccccc3)nc2-c2cc3ccccc3o2)C1 (stereo not drawn)	.	25.9µM*	-1.4%	-0.9%	-1.1%	.	-17.3%	-5.6%
Cc1nn(-c2ccccc2)c(Cl)c1C(=O)NCc1cccs1	-4.7%	-0.5%	16.7%	7.6%	-2.3%	-5.0%	24.7%	12.8%
COc1ccc(CNCCc2c[nH]c3ccccc23)cc1OC	.	.	0.6%	-0.6%	.	.	0.4%	-18.0%
Nc1nonc1-n1nnc(C(=O)N/N=C/c2ccc3c(c2)OCO3)c1-c1ccccc1	.	19.2%[46.1 µM]	0.6%	-6.0%	.	.	0.2%	5.5%
C=CCNC(=O)COC(=O)C1CCN(S(=O)(=O)c2ccc3c(c2)OCCO3)CC1	.	-4.7%	1.2%	2.0%	18.7%	.	-1.5%	-9.2%
Cc1cccc2cc(CN(Cc3ccc4c(c3)OCO4)Cc3nnnn3C3CCCC3)c(=O)[nH]c12	-0.4%	?	8.7%	-35.8%	?	3.1%	-13.8%	.
COc1cccc(C(=O)Nc2ccc3ccccc3c2)c1	.	?	-11.5%	-21.6%	?	.	-22.1%	-49.2%
Cc1ccc(/C=N/n2c(-c3cccnc3)n[nH]c2=S)s1	-1.5%	-4.8%	-1.5%	?	-15.4%	5.7%	5.3%	-13.4%
CC(C)(C)c1ccc(S(=O)(=O)N2CCC(Oc3ccc(-n4cnnn4)cc3)CC2)cc1	1.0%	3.8%[46.1 µM]	.	.	13.4%[46.1 µM]	3.5%	.	-25.3%
COc1cc(/C=C2/C(=O)ON=C2C)cc(Cl)c1O	.	8.7%[46.1 µM]	1.0%	0.5%	15.9%[46.1 µM]	.	-22.7%	?
